GCN5L2 inh: inhibitors of human GCN5L2 histone acetyltransferase; GCN5L2 HAT assay, ThioGlo1 CoA-SH fluorescence; Potency, µM (highest dose often 58.9 µM), for inactives: top-dose activity change, negative = inhibition, most hits filed as inhibitors; hit rate 0.21% among 390,000
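Enzyme at 20nM final was mixed with library compounds for 15 min at room temperature. Peptide H3(1-25) at 75uM, acetyl-CoA at 70uM and ThioGlo1 at 50uM were then added. Plates were read immediately and after 20 min (Ex340nm/Em540nm).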
FEN1 inhibitor: inhibitors of human flap endonuclease 1; Potency, µM (top dose mostly 114 µM), for the others: top-dose activity change, negative = inhibition, most hits filed as inhibitors; P39748; AID 588795; Recombinant FEN1 flap cleavage, fluorescence, 15 min; hit rate 0.35% among 390,000; further: nearly all actives have a fitted effect of over 65% in size
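FEN1 at 10 nM preincubated with compounds 15 min at room temperature, then flap DNA substrate added at 50 nM final. Signal read at 0 and 15 min; concentration-response fitted with four-parameter Hill equation.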
An asterisk follows results filed as active; [ ] = remark or other dose. The call rests on the fitted dose curve; in most records, active means well fitted curve in the direction sought with a large enough effect; inconclusive means small, poorly fitted or top-dose-only effect, or another doubt; inactive means no such curve, though single readings can be large; an effect the other way counts as inactive or inconclusive. On the % scale 0 is the no-effect control and ±100 the full control effect; potency means the concentration at half of the fitted maximal effect. Some of the compounds tested; most or all hits stand in other tables.

SMILES	GCN5L2 inh	FEN1 inhibitor
Cc1c(Cl)cccc1NC(=O)Cn1cnc2nc3c(cc2c1=O)CCCC3	4%	31%[activator]
Cc1cc(C(=O)N2CCCC(Nc3ccc(F)cc3)C2)c(C)o1 (configuration not stated)	-1%	-11%
O=C(/C=C/c1ccc(Cl)c([N+](=O)[O-])c1)Nc1cccc(NC(=O)c2ccco2)c1	-8%	-19%
O=C(/C=C/NCc1cccnc1)c1ccc(-c2ccccc2)cc1	-18%	39%[activator]
C#CC(C)(C)NC(=O)c1ccccc1OC	-8%	6%
O=C(NNc1c(Cl)cccc1Cl)c1cccs1	-5%	16%
Cc1cc(C)cc(N2C(=O)CSC23C(=O)N(CC(=O)Nc2ccc(F)cc2F)c2ccccc23)c1 (configuration not stated)	4%	-16%
COc1ccccc1OCC(=O)NNC(=O)Nc1ccc(Cl)cc1	2%	-2%
C/C(=N\NC(=O)c1c[nH]c2ccccc12)c1ccccn1	-6%	2%
CC(=O)NC1C(Oc2ccccc2C)OC2COC(c3ccco3)OC2C1O (configuration not stated)	2%	-6%
O=C1CN(C(=O)CSc2nc(-c3ccc(Cl)cc3)cs2)c2ccccc2N1	-9%	-21%
COc1ccc(C(=O)c2c[nH]c(C(=O)NCC3CCCO3)c2)cc1 (configuration not stated)	-5%	-4%
CCc1ccc(NC(=O)C2CCN(S(=O)(=O)c3ccc4[nH]c5c(c4c3)CCCCC5)CC2)cc1	-18%	-8%

Arranged by value in GCN5L2 inh (falling): some entries from above
| compound | GCN5L2 inh |
| --- | --- |
| COc1ccccc1OCC(=O)NNC(=O)Nc1ccc(Cl)cc1 | 2% |
| C#CC(C)(C)NC(=O)c1ccccc1OC | -8% |
| CCc1ccc(NC(=O)C2CCN(S(=O)(=O)c3ccc4[nH]c5c(c4c3)CCCCC5)CC2)cc1 | -18% |

One compound at a time (already shown). Order of screens: GCN5L2 inh | FEN1 inhibitor
Cc1cc(C(=O)N2CCCC(Nc3ccc(F)cc3)C2)c(C)o1 (configuration not stated) is listed as -1% | -11%
O=C(/C=C/c1ccc(Cl)c([N+](=O)[O-])c1)Nc1cccc(NC(=O)c2ccco2)c1 is listed as -8% | -19%
COc1ccc(C(=O)c2c[nH]c(C(=O)NCC3CCCO3)c2)cc1 (configuration not stated) is listed as -5% | -4%
CCc1ccc(NC(=O)C2CCN(S(=O)(=O)c3ccc4[nH]c5c(c4c3)CCCCC5)CC2)cc1 is listed as -18% | -8%
Cc1cc(C)cc(N2C(=O)CSC23C(=O)N(CC(=O)Nc2ccc(F)cc2F)c2ccccc23)c1 (configuration not stated) is listed as 4% | -16%

Bioassay records (PubChem BioAssay)
